Source: PubChem BioAssay
UUG fidelity: modulators of start codon recognition fidelity in yeast; activity score, % at 18.7 µM; hit rate 0.13% among 350,000; S. cerevisiae UUG-firefly luciferase reporter, luminescence/redox ratio;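 active = replicate mean at a twofold rise or more, about +100% in these data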;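 also: firefly luciferase made from a UUG start codon reports start codon fidelity; reporter light over untreated wells divided by growth signal over untreated wells; some hits fall short of that in this replicate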
Env fusion inh: HIV envelope-mediated fusion inhibition. HeLa-JRFL Env/CEM21 cell fusion, luciferase. inhibition, % at 12.3 µM. hit rate 1.1% among 360,000;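 active = mean replicate inhibition score of at least 50 and every replicate individually at or above 50; inconclusive = only one of the two criteria met; inactive = mean below 50 and not all replicates reaching 50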;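 also: 0% = plate neutral controls and 100% = maraviroc near 300 nM; one replicate is shown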
Numbers without * were called inactive; ? = inconclusive; [ ] = remark or other dose. These rows are one share of the data. The share of hits here may be higher or lower than overall.

SMILES	UUG fidelity	Env fusion inh
COCC(=O)Nc1ccc2c(c1)C(=O)N(C)C[C@H](OC)[C@H](C)CN(Cc1ccccc1)[C@@H](C)CO2	9	4[16.7 µM]
C[C@@H]1CN([C@H](C)CO)C(=O)c2cccc(NC(=O)c3ccncc3)c2O[C@@H]1CN(C)C(=O)Nc1ccc(C(F)(F)F)cc1	-4	-15[16.7 µM]
O=C(C[C@@H]1CC[C@H](NC(=O)NC2CCCCC2)[C@H](CO)O1)NCc1ccccc1	-2	13[16.7 µM]
C[C@@H]1CN([C@H](C)CO)C(=O)CCCn2nncc2CO[C@@H]1CN(C)Cc1ccc(C(F)(F)F)cc1	3	-10[16.7 µM]
C[C@H](CO)N1C[C@H](C)[C@@H](CN(C)C(=O)Nc2cccc(F)c2)Oc2cc(C#CC3(O)CCCC3)ccc2S1(=O)=O	15	-19[16.7 µM]
CCC(=O)N(C)C[C@H]1Oc2cc(-c3cccnc3)ccc2S(=O)(=O)N([C@@H](C)CO)C[C@H]1C	-4	5[16.7 µM]
COc1ccc(NC(=O)N(C)C[C@H]2Oc3ncc(C#C[C@@H](C)O)cc3C(=O)N([C@@H](C)CO)C[C@@H]2C)cc1	-7	-9[16.7 µM]
C[C@@H]1CN([C@H](C)CO)C(=O)c2cc(Br)cnc2O[C@H]1CN(C)Cc1cccc(F)c1	5	-9[16.7 µM]
CO[C@@H]1CN(C)C(=O)c2ccc(NC(=O)Cc3ccccc3)cc2OC[C@H](C)NC[C@@H]1C	-12	7[16.7 µM]
CC(C)NC(=O)N1[C@@H](C#N)[C@H](c2ccc(C#CC3CCCC3)cc2)[C@@H]1CO	47	-8[16.7 µM]
CO[C@H]1CN(C)C(=O)c2ccc(NS(C)(=O)=O)cc2OC[C@H](C)N(C(=O)CN(C)C)C[C@H]1C	-17	7[16.7 µM]
CNC[C@H]1OCCCC[C@H](C)Oc2ccc(NC(=O)Nc3ccc(F)cc3)cc2C(=O)N([C@H](C)CO)C[C@@H]1C	12	11[16.7 µM]
C[C@H](CO)N1C[C@H](C)[C@@H](CN(C)C(=O)Nc2ccc3c(c2)OCO3)Oc2c(NC(=O)Nc3ccc(F)cc3)cccc2C1=O	2	22[16.7 µM]
Cc1ccc(S(=O)(=O)Nc2ccc3c(c2)C(=O)N([C@@H](C)CO)C[C@@H](C)[C@@H](CN(C)C(=O)Cc2ccccc2)OCCCC[C@H](C)O3)cc1	14	-41[16.7 µM]
N#C[C@@H]1[C@H](c2ccc(-c3cccc(F)c3)cc2)[C@H](CO)N1S(=O)(=O)c1cccc(F)c1	-15	10[16.7 µM]

6 compounds from above, sorted by molar mass, rising:
SMILES	UUG fidelity	Env fusion inh
O=C(C[C@@H]1CC[C@H](NC(=O)NC2CCCCC2)[C@H](CO)O1)NCc1ccccc1	-2	13[16.7 µM]
N#C[C@@H]1[C@H](c2ccc(-c3cccc(F)c3)cc2)[C@H](CO)N1S(=O)(=O)c1cccc(F)c1	-15	10[16.7 µM]
C[C@@H]1CN([C@H](C)CO)C(=O)c2cc(Br)cnc2O[C@H]1CN(C)Cc1cccc(F)c1	5	-9[16.7 µM]
CO[C@H]1CN(C)C(=O)c2ccc(NS(C)(=O)=O)cc2OC[C@H](C)N(C(=O)CN(C)C)C[C@H]1C	-17	7[16.7 µM]
C[C@@H]1CN([C@H](C)CO)C(=O)c2cccc(NC(=O)c3ccncc3)c2O[C@@H]1CN(C)C(=O)Nc1ccc(C(F)(F)F)cc1	-4	-15[16.7 µM]
C[C@H](CO)N1C[C@H](C)[C@@H](CN(C)C(=O)Nc2ccc3c(c2)OCO3)Oc2c(NC(=O)Nc3ccc(F)cc3)cccc2C1=O	2	22[16.7 µM]

The listing continues.
SMILES	UUG fidelity	Env fusion inh
O=C(N[C@@H]1CC[C@H](CCNC(=O)c2ccccc2F)O[C@H]1CO)c1ccc2c(c1)OCO2	3	-4[16.7 µM]
O=C(C[C@@H]1C[C@@H]2c3cc(NC(=O)CC4CC4)ccc3O[C@@H]2[C@H](CO)O1)NCc1ccccn1	-24	7[16.7 µM]
C[C@H]1CN([C@@H](C)CO)C(=O)c2cccc(NC(=O)NC3CCCCC3)c2O[C@@H]1CN(C)Cc1ccc2c(c1)OCO2	13	12[16.7 µM]
C[C@H]1CN([C@@H](C)CO)C(=O)c2cc(NC(=O)C3CCCCC3)ccc2O[C@@H]1CN(C)CC1CCCCC1	3	19[16.7 µM]
O=C(C[C@H]1CC[C@H](NS(=O)(=O)c2ccccc2)[C@H](CO)O1)N1CCc2ccccc2C1	-1	4[16.7 µM]
COc1ccc(NC(=O)N[C@@H]2CC[C@@H](CCNC(=O)CN3CCOCC3)O[C@@H]2CO)cc1	-19	4[16.7 µM]
C[C@@H]1CN([C@@H](C)CO)S(=O)(=O)c2ccc(C3=CCCCC3)cc2O[C@@H]1CN(C)C(=O)C1CCCCC1	20	22[16.7 µM]
C[C@@H]1CN([C@H](C)CO)C(=O)Cc2cc(NC(=O)Nc3ccccc3)ccc2O[C@@H]1CN(C)S(=O)(=O)c1ccc(F)cc1	-6	17[16.7 µM]
CCC(=O)N(C)C[C@H]1Oc2ncc(C#Cc3ccccc3OC)cc2C(=O)N([C@H](C)CO)C[C@@H]1C	-9	8[16.7 µM]
CN1C(=O)c2cc(NC(=O)c3ccc(C(F)(F)F)cc3)ccc2OC[C@@H]2O[C@@H](CC(=O)O)CC[C@H]21	-1	17[16.7 µM]
C[C@H]1CCCCO[C@H](CN(C)C(=O)CCC(F)(F)F)[C@@H](C)CN([C@@H](C)CO)C(=O)c2cc(N(C)C)ccc2O1	5	23[16.7 µM]
C[C@H]1CN([C@@H](C)CO)C(=O)Cc2cc(NC(=O)Cn3cnnn3)ccc2O[C@@H]1CN(C)Cc1ccc(C(F)(F)F)cc1	8	16[16.7 µM]
C[C@@H]1CN([C@H](C)CO)C(=O)c2cc(C3=CCCC3)cnc2O[C@@H]1CN(C)Cc1ccc(C(=O)O)cc1	2	-12[16.7 µM]
COc1ccc(S(=O)(=O)Nc2ccc3c(c2)C(=O)N([C@@H](C)CO)C[C@@H](C)[C@@H](CN(C)C(=O)CCC(F)(F)F)OCCCC[C@@H](C)O3)cc1	8	24[16.7 µM]
C[C@@H]1CCCCO[C@@H](CN(C)C(=O)Nc2ccc3c(c2)OCO3)[C@@H](C)CN([C@@H](C)CO)C(=O)c2cc(N(C)C)ccc2O1	2	14[16.7 µM]
C[C@@H]1CN([C@@H](C)CO)C(=O)c2cc(N(C)C)ccc2O[C@H]1CN(C)Cc1ccc(Oc2ccccc2)cc1	-4	-12[16.7 µM]
C[C@@H]1CN([C@@H](C)CO)C(=O)c2cc(NC(=O)Nc3ccc(C(F)(F)F)cc3)ccc2O[C@@H](C)CCCCO[C@H]1CN(C)S(=O)(=O)c1ccc(Cl)cc1	-3	15[16.7 µM]
Cc1ccc(S(=O)(=O)Nc2cccc3c2O[C@@H](CN(C)Cc2ccncc2)[C@H](C)CN([C@@H](C)CO)C3=O)cc1	15	-5[16.7 µM]
Cc1ccc(-c2ccc3c(c2)O[C@@H](CN(C)Cc2cccnc2)[C@@H](C)CN([C@H](C)CO)S3(=O)=O)cc1	0	2[16.7 µM]
CCC(=O)N(C)C[C@@H]1Oc2cc(C#CC(C)C)ccc2S(=O)(=O)N([C@H](C)CO)C[C@H]1C	12	-63[16.7 µM]
C[C@@H]1CN([C@H](C)CO)C(=O)c2cc(C#Cc3ccccc3F)cnc2O[C@H]1CN(C)S(=O)(=O)c1ccccc1	3	11[16.7 µM]
COCC(=O)N1C[C@H](C)[C@H](OC)CN(C)C(=O)c2cc(NC(=O)c3ccc(OC)cc3)ccc2OC[C@@H]1C	14	8[16.7 µM]
C[C@@H]1CN([C@H](C)CO)C(=O)c2cc(C#Cc3ccccc3F)cnc2O[C@H]1CN(C)C(=O)Cc1cccnc1	-7	?
C[C@@H]1CN([C@H](C)CO)C(=O)Cc2cc(NC(=O)Cc3cn(C)c4ccccc34)ccc2O[C@@H]1CN(C)C(=O)Nc1ccccc1	2	-2[16.7 µM]
C[C@@H]1CN([C@H](C)CO)C(=O)c2cc(NC(=O)c3ccncc3)ccc2O[C@@H](C)CCCCO[C@H]1CN(C)C	9	9[16.7 µM]
COc1ccc(NC(=O)N[C@@H]2CC[C@H](CCNC(=O)c3cc(Cl)cc(Cl)c3)O[C@H]2CO)cc1	-2	16[16.7 µM]
COc1ccc(S(=O)(=O)Nc2ccc3c(c2)C(=O)N([C@@H](C)CO)C[C@@H](C)[C@@H](CN(C)CC2CCCCC2)OCCCC[C@@H](C)O3)cc1	48	-3[16.7 µM]
COc1ccc(S(=O)(=O)N(C)C[C@@H]2OCCCC[C@H](C)Oc3ccc(NC(=O)Nc4ccccc4)cc3C(=O)N([C@@H](C)CO)C[C@H]2C)cc1	-6	37[16.7 µM]
O=C(N[C@H]1CC[C@@H](CCNS(=O)(=O)c2ccc(F)cc2)O[C@H]1CO)c1cccc(F)c1	1	17[16.7 µM]
CO[C@@H]1CN(C)C(=O)c2cc(NC(=O)c3ccc(F)cc3)ccc2OC[C@@H](C)N(C(=O)CN(C)C)C[C@H]1C	-11	-10[16.7 µM]
C[C@H](CO)N1C[C@H](C)[C@H](CN(C)C(=O)c2ccccc2)Oc2ncc(C3=CCCC3)cc2C1=O	5	19[16.7 µM]
C[C@H]1CN([C@@H](C)CO)S(=O)(=O)c2ccc(-c3ccccc3)cc2O[C@H]1CN(C)Cc1cccnc1	-5	18[16.7 µM]
CC(C)Cc1ccc(CN2CC[C@@H](NS(=O)(=O)c3ccccc3)C2)cc1	-5	-9[16.7 µM]
C[C@H]1CN([C@@H](C)CO)C(=O)c2cccc(NS(C)(=O)=O)c2O[C@H]1CN(C)Cc1ccccc1	-10	13[16.7 µM]
CC(C)NC(=O)N[C@@H]1CC[C@@H](CC(=O)NC2Cc3ccccc3C2)O[C@H]1CO	-2	9[16.7 µM]
CN1C(=O)c2cc(NC(=O)C3CC3)ccc2OC[C@H]2O[C@H](CC(=O)NCC3CCCCC3)CC[C@H]21	0	-4[16.7 µM]
Cc1ccc(S(=O)(=O)N(C)C[C@@H]2Oc3c(cccc3N(C)C)C(=O)N([C@H](C)CO)C[C@H]2C)cc1	15	8[16.7 µM]
CN(C)CC(=O)N[C@H]1CC[C@@H](CC(=O)NCc2ccccc2F)O[C@H]1CO	4	-10[16.7 µM]
C[C@H]1CN([C@@H](C)CO)C(=O)Cc2cc(NS(C)(=O)=O)ccc2O[C@H]1CN(C)S(=O)(=O)c1cccs1	4	28[16.7 µM]
C[C@H]1CCCCO[C@@H](CN(C)Cc2ccc3c(c2)OCO3)[C@@H](C)CN([C@@H](C)CO)C(=O)c2cc(NC(=O)c3ccncc3)ccc2O1	6	-1[16.7 µM]
COc1ccc(NC(=O)N[C@@H]2CC[C@H](CCNS(=O)(=O)c3cccc(Cl)c3)O[C@@H]2CO)cc1	-6	15[16.7 µM]
CCNC(=O)C[C@H]1CC[C@@H]2[C@H](COc3ccc(NC(=O)C4CCOCC4)cc3C(=O)N2C)O1	3	-7[16.7 µM]
C[C@@H]1CN([C@H](C)CO)C(=O)c2cc(C#CC3CCCC3)cnc2O[C@H]1CN(C)Cc1ccncc1	-5	-6[16.7 µM]
O=C1O[C@H](c2ccccc2)[C@H](c2ccccc2)N2[C@H]1[C@@H](C(=O)N1CCN(c3ncccn3)CC1)[C@]1(C(=O)Nc3ccc(C#CCCO)cc31)[C@H]2c1ccc(OCCO)cc1	-12	2[16.7 µM]
CC(=O)N(C)C[C@@H]1Oc2ncc(-c3cncnc3)cc2C(=O)N([C@H](C)CO)C[C@@H]1C	-16	0[16.7 µM]
C[C@@H]1CCCCO[C@H](CN(C)S(=O)(=O)c2ccc(Cl)cc2)[C@H](C)CN([C@@H](C)CO)C(=O)c2cc(N(C)C)ccc2O1	-2	8[16.7 µM]
Cc1noc(C)c1S(=O)(=O)Nc1ccc2c(c1)C(=O)N([C@H](C)CO)C[C@@H](C)[C@H](CN(C)C(=O)Nc1ccc3c(c1)OCO3)OCCCC[C@@H](C)O2	4	-6[16.7 µM]
COc1ccc(S(=O)(=O)Nc2ccc3c(c2)C(=O)N([C@@H](C)CO)C[C@@H](C)[C@@H](CN(C)S(=O)(=O)c2cn(C)cn2)O3)cc1	-6	-18[16.7 µM]
C[C@H](CO)N1C[C@H](C)[C@@H](CN(C)C(=O)Cc2ccccc2)OCCCC[C@H](C)Oc2ccc(NC(=O)Cc3ccccc3)cc2C1=O	0	-45[16.7 µM]
Cc1noc(C)c1S(=O)(=O)N(C)C[C@@H]1Oc2c(cccc2N(C)C)C(=O)N([C@H](C)CO)C[C@H]1C	-5	17[16.7 µM]
Cc1noc(C)c1NC(=O)N(C)C[C@@H]1OCCCC[C@@H](C)Oc2ccc(NS(=O)(=O)c3c(C)noc3C)cc2C(=O)N([C@@H](C)CO)C[C@H]1C	1	17[16.7 µM]
CC(C)NC(=O)N(C)C[C@H]1Oc2cc(-c3ccccc3)ccc2S(=O)(=O)N([C@H](C)CO)C[C@@H]1C	7	-3[16.7 µM]
Cc1ccc(S(=O)(=O)N[C@@H]2CC[C@H](CC(=O)NCCc3ccncc3)O[C@@H]2CO)cc1	-7	-5[16.7 µM]
Cc1ccc(S(=O)(=O)Nc2ccc3c(c2)CC(=O)N([C@@H](C)CO)C[C@H](C)[C@@H](CN(C)Cc2ccc(-c4ccccc4)cc2)O3)cc1	5	75*[16.7 µM]
C[C@@H]1CN([C@@H](C)CO)S(=O)(=O)c2ccc(-c3ccccc3F)cc2O[C@H]1CN(C)S(C)(=O)=O	-1	12[16.7 µM]
